Vaccinia mCherry – inhibitors of vaccinia virus infection (mCherry reporter signal). Vaccinia virus mCherry reporter infection, fluorescence; about a quarter of the inactives have no number. Potency, µM (series often up to 36.5 µM), inactives show at the top dose activity change, negative = inhibition, hits mostly inhibitors. actives 0.63% (n = 310,000). AID 720579; active = well fitted inhibition curve with a large enough effect; inconclusive = small, poorly fitted or top-dose-only effect; inactive = no such curve, though single readings can be large or run the other way; tested in A549 cells; further: nearly all actives have a fitted effect of over 35% in size; inactives centre near -10
Vaccinia Venus – inhibitors of vaccinia virus (Venus reporter); actives 0.46% (n = 330,000); Vaccinia virus Venus reporter expression, fluorescence; Potency, µM (series often up to 36.5 µM), for inactives: at the highest dose activity change, negative = inhibition, most hits filed as inhibitors; active means well fitted inhibition curve with a large enough effect; inconclusive means small, poorly fitted or top-dose-only effect; inactive means no such curve, though single readings can be large or run the other way; tested in A549 cells; further: nearly all actives have a fitted effect of over 30% in size; inactives centre near -10
Numbers without * were called inactive; i = inactive; u = inconclusive; x = no result given; & = joins results of further samples; [ ] = remark or other dose. On the % scale 0 is the no-effect control and ±100 the full control effect; potency means the concentration at half of the fitted maximal effect.

nr	mol	Vaccinia mCherry	Vaccinia Venus
1	CCOC(=O)[C@@H]1[C@H]2COc3cc(OC)ccc3[C@H]2N2C(=O)N(c3ccc(C)cc3)C(=O)[C@@]12C	0%	-22%
2	CCN1CCN(CCNC(=O)CCc2c(C)c3c(C)nn(-c4ccccc4)c3n(C)c2=O)CC1	-3%	u
3	O=c1cc(CSc2ccc(Cl)cc2)nc(N2CCCCC2)[nH]1	-11%	-11%
4	CCOc1ccc2ncc(S(=O)(=O)c3ccccc3)c(N3CCN(c4ccc(OC)cc4)CC3)c2c1	-5%	-29%
5	Cc1ccc(CNS(=O)(=O)c2cc(C(=O)Nc3cccc(C(F)(F)F)c3)ccc2F)cc1	-8%[7.34 µM]	2%[7.34 µM]
6	COC(=O)C1SCC2C(=O)N(Cc3ccccc3)CC(=O)N21 (stereo unspecified)	i	-9%
7	Cc1c(NC(=S)NC(=O)CSc2ccc(Cl)cc2)cccc1C(=O)O	-2%	-10%
8	N/C(=N\S(=O)(=O)c1cc(C(F)(F)F)cc(C(F)(F)F)c1)c1ccncc1	i	-13%
9	CN(C)CCOC(=O)CCc1ccccc1	x	u
10	CCCCNC(=O)CN1C(=O)c2cccc(N)c2C1=O	i	-11%
11	c1ccc(C2CC(c3ccccc3)n3ncnc3N2)cc1 (stereo unspecified)	i	-10%
12	CCC(C)N(C(=O)CSc1nc(-c2cccs2)nc2ccccc12)C1CCS(=O)(=O)C1 (stereo unspecified)	i	-21%
13	O=C(NCc1cccnc1)[C@@H]1CC=C[C@@H]2CCN(Cc3ccccc3)C(=O)[C@@H]21	-8%	5%&-4%
14	COc1cccc(-n2c(=O)c3sccc3n(CC(=O)NCC3CCCO3)c2=O)c1 (stereo unspecified)	-14%	1%
15	COc1cccc(-c2noc(C3CC(=O)N(c4ccc(F)cc4)C3)n2)c1OC (stereo unspecified)	6%	0%
16	CC(Oc1ccc(F)cc1)C(=O)Nc1nc(-c2ccc(F)cc2)ns1 (stereo unspecified)	-6%	-19%
17	Cc1onc(-c2c(F)cccc2Cl)c1C(=O)NC(=S)NC1CCS(=O)(=O)C1 (stereo unspecified)	-10%	-8%
18	CC(=O)OC1CCC2(C)C3CCC4(C)C(C(C)=O)CCC4C3CC3OC32C1 (stereo unspecified)	i	1%
19	CC(=O)Nc1ccc(NC(=O)C2(C)Cc3c(-c4cccc(C(N)=O)c4)ccnc3O2)cc1 (stereo unspecified)	10%	-7%
20	CCc1nnc(SC(CC)C(=O)Nc2cccc(OC)c2)c2cc3oc(C)cc3n12 (stereo unspecified)	-10%	-17%
21	O=C(NCCCNc1ccc([N+](=O)[O-])cc1)C(F)(F)F	-16%	-9%
22	COc1cc(-c2nc(-c3ccc4c(c3)[nH]c(=O)n4C)no2)cc(OC)c1OC	7%	13%
23	COc1ccc2c(C)nc(N/C(N)=N/S(=O)(=O)c3ccc(C)cc3)nc2c1	-29%	-24%
24	O=c1[nH]n(CCO)c(=O)c2cccnc12	-17%	-7%
25	O=[N+]([O-])c1ccc(N/N=C2/CCCCC2c2ccccn2)cc1 (stereo unspecified)	-21%	-6%
26	c1ccc2c(c1)C(=Nn1cnnc1)c1ccccc1-2	8%	0%
27	CN1C[C@H](C(=O)N[C@]2(C)O[C@@]3(O)[C@@H]4CCCN4C(=O)[C@H](Cc4ccccc4)N3C2=O)CC2c3cccc4[nH]cc(c34)C[C@H]21 (stereo partly specified)	-5%&-29%	-8%&-11%
28	O=C(N/N=C/c1ccc2c(c1)OCO2)c1ccn(Cc2ccc(Cl)cc2)n1	-10%	-7%
29	O=C(c1cc2ccccc2o1)N1CCN(S(=O)(=O)c2ccccc2)CC1	-13%	-13%
30	CCCCN1C(=O)C(=O)N(CC(=O)Nc2cc(S(=O)(=O)N(C)C)ccc2C)C1=O	-16%	-6%

A second format for some results above.
Every second line gives: Vaccinia mCherry	Vaccinia Venus
28	O=C(N/N=C/c1ccc2c(c1)OCO2)c1ccn(Cc2ccc(Cl)cc2)n1
  -10%	-7%
29	O=C(c1cc2ccccc2o1)N1CCN(S(=O)(=O)c2ccccc2)CC1
  -13%	-13%
30	CCCCN1C(=O)C(=O)N(CC(=O)Nc2cc(S(=O)(=O)N(C)C)ccc2C)C1=O
  -16%	-6%

Further records.
nr	mol	Vaccinia mCherry	Vaccinia Venus
31	Cc1ccc(CNC(=O)c2cc(S(=O)(=O)N3CCCC3)cn2C)cc1	i	-14%
32	COc1cc(NC(=O)c2cc(Cl)ccc2Cl)ccc1NC(=O)c1cc2ccccc2o1	-18%	-6%
33	COc1ccc(N2CC(NC(=O)c3cccc4ccccc34)CC2=O)cc1OC (stereo unspecified)	i	-11%
34	Cc1nc2ccc(C(=O)N3CCC(O)(Cc4ccccc4)CC3)cn2c1N(C)C(=O)CCc1ccccc1	i	-16%
35	O=C(Nc1c(-c2ccccc2)[nH][nH]c1=O)c1ccc2ccccc2c1	u	1%
36	O=C1CCN(CCc2ccccc2)CCN1[C@H](CSc1ccc(Br)cc1)Cc1ccccc1	u	u
37	Cc1cccc(C(=O)n2c(=S)nc3ccccn32)c1	-20%	u
38	Cc1ccc(C)c(NC(c2ccccc2)c2nnc(-c3ccccc3F)o2)c1 (stereo unspecified)	-6%	3%
39	CC1CCC(NC(=O)C2(C)Cc3ccccc3C(=O)N2Cc2ccc(Cl)cc2)CC1 (stereo unspecified)	1%	-6%
40	O=c1c2ccccc2ncn1CCOCCOc1ccc([N+](=O)[O-])cc1	i	-5%
41	CCOC(=O)N1CCC(NC(=O)C2CCCN(S(=O)(=O)c3cccc4nsnc34)C2)CC1 (stereo unspecified)	-14%	-8%
42	Cc1nnc(SCc2ccc(CSc3nnc(C)c(=O)[nH]3)cc2)[nH]c1=O	-10%	5%
43	CC(=O)c1csc(-c2cccc(-c3nc4ccc(Cl)cn4c3NC3CCCCC3)c2)c1	-19%	-19%
44	O=[N+]([O-])c1[nH]cnc1/C=C/c1ccccc1	i	-5%
45	CCNc1nc(NCc2ccccc2)nc(Oc2ccc(=O)[nH]n2)n1	-12%	6%
46	O=C(NCCc1ccccc1)C(=O)NCC(c1ccco1)S(=O)(=O)c1cccs1 (stereo unspecified)	-10%	-19%
47	CCOC(=O)c1ccccc1NC(=O)c1cc2c(s1)-c1c(C)cccc1OC2	-11%	-7%
48	COc1ccc(-c2cn3cccnc3n2)cc1	i	-7%
49	CCc1cccc(C)c1NC(=O)c1ccc2c(c1)CCN2S(=O)(=O)c1ccc(Cl)cc1	-7%	-3%
50	Cc1ccc(S(=O)(=O)N(C)Cc2nc(-c3ccc(Br)cc3)no2)cc1	-6%	-4%
51	CN(C)c1ccc(NC(=O)CN2CCC(O)(c3ccccc3)CC2)cc1	5%	13%
52	O=C(CN1CCN(C(=O)c2ccco2)CC1)Nc1cc(Cl)ccc1Cl	i	-18%
53	Cc1ccc(C(=O)NCCc2nnc(SCC(=O)Nc3cccc(C(=O)O)c3)n2C)cc1	-17%	-4%
54	O/N=C/c1cn(-c2ccccc2)nc1-c1ccccc1	-1%	u
55	CC1(C)Cc2c(C#N)c(N3CCN(C(=O)c4ccccc4)CC3)nc(Cc3ccccc3)c2CO1	x	u
56	CN(C)CCCNC(=O)C[C@H]1C[C@H](C(=O)N2CCOCC2)[C@@]2(C)c3[nH]c4cc(-c5ccco5)ccc4c3CCN2C1=O	-16%	-18%
57	CCN(CC)CC(=O)Nc1ccc(-c2nc3cc(NC(=O)CN(CC)CC)ccc3o2)cc1	x	-6%
58	Cc1ccc2c(c1)[C@H]1[C@H](CO2)[C@H](c2ccccc2)[C@]2(C)C(=O)N(Cc3ccc(F)cc3)CC(=O)N12	-1%	-24%
59	O=C(C=Cc1ccccc1)c1ccc([N+](=O)[O-])cc1	-24%	-13%
60	Cc1ccc(S(=O)(=O)N2C[C@H]3[C@H]4C(=O)N(Cc5ccccc5)C(=O)[C@H]4CC(=O)[C@H]3[C@@H]2c2ccccc2)cc1	i	-9%
61	C/C(CC1(O)C(=O)Nc2ccccc21)=N\O (stereo unspecified)	x	-12%
62	CCOc1ccc(S(=O)(=O)Nc2ccc(OC)c(Cl)c2)c2cccnc12	-17%	-11%
63	CCc1ccc(C2c3[nH]c4ccccc4c3CCN2C(=O)CN2CCN(CC)CC2)cc1 (stereo unspecified)	u	-29%
64	COC(=O)Nc1ccc(S(=O)(=O)N2CCCC(C(=O)O)C2)cc1 (stereo unspecified)	-12%	-5%
65	COc1ccc(C2CC(c3ccc4ccccc4c3)=NN2C(=O)COC(=O)C2CCC(=O)N2)cc1 (stereo unspecified)	-20%	-29%
66	COc1ccccc1NC(=O)C(=O)NCCC1CCCCN1S(=O)(=O)c1cccs1 (stereo unspecified)	i	-19%
67	COc1c(C=O)cc2c3c1CCCN3CCC2	-9%	2%
68	CC1CC1C(=O)OCC(=O)NC(=O)c1ccccc1 (stereo unspecified)	-10%	-1%
69	COC(=O)[C@@]12C[C@@H](CC(=O)N3CCOCC3)C(=O)N(Cc3ccccc3)C1=CCC(C)(C)C2	i	-14%
70	CCOc1ccccc1NS(=O)(=O)c1ccc2c(c1)CC(C)N2C(=O)C1CCC1 (stereo unspecified)	-18%	-12%
71	Cc1cc(Br)ccc1NC(=O)CNC(=O)COc1ccccc1C	-1%	-18%
72	CCOC(=O)CNC(=O)C(Cc1ccccc1)NS(=O)(=O)c1cccs1 (stereo unspecified)	i	-15%
73	Clc1ccc(Sc2ccc(/C=N/n3cnnc3)o2)cc1	x	-8%
74	CC1(c2ccccc2)CC(C)(C)N2C(=O)C3(C(C#N)=C(N)Oc4cc(O)ccc43)c3cccc1c32 (stereo unspecified)	u	u
75	On1c(-c2ccccc2)nc2ccccc21	-7%	-7%
76	O=C(Cc1ccc(NC(=O)C2CCCN(C(=O)C3CCC3)C2)cc1)Nc1ccc(C(=O)N2CCOCC2)cc1 (stereo unspecified)	-7%	4%
77	Cc1ccccc1NC(=O)Cn1c(=O)sc2ccccc21	i	-11%
78	COc1ccc(N(C(=O)CNS(=O)(=O)c2ccccc2)C(C(=O)NCc2ccco2)C(C)C)cc1 (stereo unspecified)	-8%	-15%
79	Cc1cc(C)nc(N2C(=O)CC(C(C)c3ccccc3)C2=O)n1 (stereo unspecified)	-8%	3%
80	O=C(NC1CCCC1)C1c2ccccc2OCC(=O)N1Cc1ccc2c(c1)OCO2 (stereo unspecified)	12%	-3%

Additional structures follow:
nr	mol	Vaccinia mCherry	Vaccinia Venus
81	CN1C[C@@H]2C(c3ccccc3)C3(c4cccnc4)CC2(C3)[C@H]1c1ccccc1 (stereo partly specified)	u	-16%
82	CCCc1nnc(NC(=S)Nc2ccccc2)s1	i	5%
83	COc1cc(SC)ccc1C(=O)NCC1CCCO1 (stereo unspecified)	-19%	-6%
84	Cc1cc(C)c(C#N)c(SCc2ccc([N+](=O)[O-])cc2)n1	i	-10%
85	CCN1C(=O)/C(=C2\SC(N3CCCCC3)=NC2=O)c2ccccc21	-25%	-12%
86	CCC(=NCC1CCCO1)c1c(O)n(-c2ccc(OC)cc2)c(=O)[nH]c1=O (stereo unspecified)	-12%	-10%
87	OCC[C@H]1C[C@H](O)[C@@H](O)[C@@]2(OCCCc3ccccc32)O1	i	-8%
88	Cc1ccc(N=Cc2c(O)[nH]c3ccccc23)c([N+](=O)[O-])c1	u	1%
89	CCOC(=O)CNC(=S)n1cnc(N)n1	-7%	2%
90	O=C(/C=C/Nc1ccc(Br)cc1F)c1ccco1	-15%	-6%
91	Cc1cccc(C)c1NC(=O)c1ccc(-n2cnnn2)cc1	-6%	-7%
92	O=c1c(CN2CCOc3ccc(CN4CCC(Oc5cccnc5)CC4)cc3C2)coc2ccccc12	-9%	-11%
93	COc1ccc(OC[C@@H](O)CNC(=O)c2cccc3c2C(=O)c2ccc(Cl)cc2S3(=O)=O)cc1	-2%	-17%
94	CC/C=C/C(=O)N1CC2(CC(c3cccc(NC(=O)CC(c4ccccc4)c4ccccc4)c3)=NO2)C[C@@H]1C(N)=O (stereo partly specified)	u	u
95	O=[N+]([O-])c1cc(Cc2ccccc2)cc(C=Nc2ccc(N3CCOCC3)cc2)c1O	-16%	4%

By substructure: the entries above containing an NH in an aromatic ring
nr	mol	Vaccinia mCherry	Vaccinia Venus
3	O=c1cc(CSc2ccc(Cl)cc2)nc(N2CCCCC2)[nH]1	-11%	-11%
22	COc1cc(-c2nc(-c3ccc4c(c3)[nH]c(=O)n4C)no2)cc(OC)c1OC	7%	13%
24	O=c1[nH]n(CCO)c(=O)c2cccnc12	-17%	-7%
27	CN1C[C@H](C(=O)N[C@]2(C)O[C@@]3(O)[C@@H]4CCCN4C(=O)[C@H](Cc4ccccc4)N3C2=O)CC2c3cccc4[nH]cc(c34)C[C@H]21 (stereo partly specified)	-5%&-29%	-8%&-11%
35	O=C(Nc1c(-c2ccccc2)[nH][nH]c1=O)c1ccc2ccccc2c1	u	1%
42	Cc1nnc(SCc2ccc(CSc3nnc(C)c(=O)[nH]3)cc2)[nH]c1=O	-10%	5%
44	O=[N+]([O-])c1[nH]cnc1/C=C/c1ccccc1	i	-5%
45	CCNc1nc(NCc2ccccc2)nc(Oc2ccc(=O)[nH]n2)n1	-12%	6%
56	CN(C)CCCNC(=O)C[C@H]1C[C@H](C(=O)N2CCOCC2)[C@@]2(C)c3[nH]c4cc(-c5ccco5)ccc4c3CCN2C1=O	-16%	-18%
63	CCc1ccc(C2c3[nH]c4ccccc4c3CCN2C(=O)CN2CCN(CC)CC2)cc1 (stereo unspecified)	u	-29%
86	CCC(=NCC1CCCO1)c1c(O)n(-c2ccc(OC)cc2)c(=O)[nH]c1=O (stereo unspecified)	-12%	-10%
88	Cc1ccc(N=Cc2c(O)[nH]c3ccccc23)c([N+](=O)[O-])c1	u	1%
